Insulin prom inh: inhibitors of insulin promoter-driven GFP, primary screen, imaging, TRM-6 cells (human fetal islet line), eGFP reporter, cell count; reporter expression induced with tamoxifen; inhibition, % at 2 µM; 0.9% of 130,000 active;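 active = inhibition above the mean plus 3 SD, with well images judged a real hit on visual review, cut at about 60% in these data, passing the limit was not always enough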
GALR2 agonist: GALR2 receptor agonists, primary screen, cell-based; Galanin receptor type 2 (Homo sapiens), O43603; GALR2-expressing cells, agonist activation read-out; activation, %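 (tested at 5 µM)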; 0.48% of 140,000 active; AID 803, 2007;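 active = above mean plus 3 SD of all compounds, about 5% in these data, not always enough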;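 also: 0% = vehicle buffer wells and 100% = reference agonist at full effect; tested in CHO reporter cells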
Target sequence (O43603 whole entry, looked up): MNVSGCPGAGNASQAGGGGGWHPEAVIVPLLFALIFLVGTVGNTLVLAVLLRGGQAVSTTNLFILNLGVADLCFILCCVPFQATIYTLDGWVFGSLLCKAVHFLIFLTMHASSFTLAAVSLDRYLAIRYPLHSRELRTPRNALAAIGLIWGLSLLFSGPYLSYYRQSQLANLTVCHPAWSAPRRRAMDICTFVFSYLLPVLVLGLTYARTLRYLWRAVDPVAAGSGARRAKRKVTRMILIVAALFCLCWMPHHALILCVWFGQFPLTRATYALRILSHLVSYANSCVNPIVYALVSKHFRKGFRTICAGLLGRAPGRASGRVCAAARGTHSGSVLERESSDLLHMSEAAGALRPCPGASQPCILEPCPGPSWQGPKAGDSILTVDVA
RGS16-Gao HTS: modulators of RGS16 binding to Galphao, primary screen, biochemical, human proteins, multiplexed bead flow cytometry | Regulator of G-protein signaling 16 (Homo sapiens) + Guanine nucleotide-binding protein … | bead-based flow cytometry RGS16-Galphao binding, fluorescence; actives lie on both sides | binding response (% of control), % at 10 µM | 0.38% of 220,000 active | AID 1441, 2008;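 active = below 25% or above 175%, edge rows of some plates excepted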;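 also: Galphao activated by GDP with aluminum fluoride before binding; 100% = wells without compound and 0% = beads without RGS; some results beyond the cut were filed as inactive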
Target sequence (O15492 whole entry, looked up): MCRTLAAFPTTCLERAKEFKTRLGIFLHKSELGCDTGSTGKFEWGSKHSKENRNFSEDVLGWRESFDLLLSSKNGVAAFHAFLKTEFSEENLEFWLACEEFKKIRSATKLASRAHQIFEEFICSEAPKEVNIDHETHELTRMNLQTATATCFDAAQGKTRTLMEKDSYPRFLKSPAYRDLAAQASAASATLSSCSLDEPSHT
Target sequence (P09471 whole entry, looked up): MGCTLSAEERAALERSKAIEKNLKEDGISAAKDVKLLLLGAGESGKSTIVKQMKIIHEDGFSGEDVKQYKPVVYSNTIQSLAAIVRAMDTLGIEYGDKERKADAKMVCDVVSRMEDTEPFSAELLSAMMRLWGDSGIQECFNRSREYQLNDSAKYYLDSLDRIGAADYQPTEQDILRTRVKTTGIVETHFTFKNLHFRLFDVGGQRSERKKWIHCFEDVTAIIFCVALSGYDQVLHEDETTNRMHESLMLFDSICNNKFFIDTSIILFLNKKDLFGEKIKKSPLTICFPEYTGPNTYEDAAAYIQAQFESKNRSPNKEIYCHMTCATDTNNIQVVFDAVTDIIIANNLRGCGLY
PKD1 kinase inh: inhibitors of human PKD1 kinase, biochemical, fluorescence polarization; Serine/threonine-protein kinase D1 (Homo sapiens), Q15139; PKD1 kinase fluorescence polarization assay; inhibition, %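 (about 10 µM by stock and volumes)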; 0.056% of 200,000 active; AID 797, 2007;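 active = inhibition of 50% or more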;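 also: controls were vehicle for no effect and a reference inhibitor for full effect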
HSV replic up: enhancers of HSV replication in host cells, fold increase, host cell viability. HSV replication augmentation in cells. maximum fold increase. 0.005% of 220,000 active. AID 1956, 2009;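 active = peak rise of 1.5-fold or more in the series; tested in PC3 cells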;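 also: first round at 10 µM; read as green reporter fluorescence; hits show the peak of a series up to 25 µM; 1 = signal of infected wells without compound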
Insulin prom inh cell count: also measured in Insulin prom inh; calls as there; normalized cell count, %; measured here: cell count, toxicity; reference of the scale not given here;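 cells exposed to compound for 48 h; stained nuclei by imaging scaled within each plate; lower means fewer cells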
HSV replic up primary fold: second read-out of HSV replic up, no call of its own (marks repeat the call); fold increase; compound at 10 µM; measured here: primary screen fold increase 10 uM; tested in PC3 cells;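 GFP signal in the first replicate; 1 = infected wells without compound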
* marks the source's active call; other numbers are inactive results; i = inactive; nt = not tested or not shown.

The first 5 compounds (preview)
SMILES	Insulin prom inh	Insulin prom inh cell count	GALR2 agonist	RGS16-Gao HTS	PKD1 kinase inh	HSV replic up	HSV replic up primary fold
Cc1cc(Br)c(NC(=O)c2ccccc2[N+](=O)[O-])cc1C	-5	74	nt	97	-1	i	1.1
CCCCNC(=O)OC(C)CNC(=O)Oc1cccc(C)c1 (configuration not stated)	26	141	-1.3	99	-13	i	0.92
COc1ccc(C(=O)NC(Nc2ccc(C)cc2)C(Cl)(Cl)Cl)cc1 (configuration not stated)	12	50	-1.9	100	-1	i	0.89
COc1ccc(-c2nc3ccc(C(=O)NCC(OC)OC)cc3nc2-c2ccc(OC)cc2)cc1	0	75	nt	96	0	i	0.88
COc1ccc(NC(=O)CSc2nccn2-c2ccccc2)c(OC)c1	16	96	-0.3	102	-15	i	0.98

The listing, repeating the preview:
SMILES	Insulin prom inh	Insulin prom inh cell count	GALR2 agonist	RGS16-Gao HTS	PKD1 kinase inh	HSV replic up	HSV replic up primary fold
Cc1cc(Br)c(NC(=O)c2ccccc2[N+](=O)[O-])cc1C	-5	74	nt	97	-1	i	1.1
CCCCNC(=O)OC(C)CNC(=O)Oc1cccc(C)c1 (configuration not stated)	26	141	-1.3	99	-13	i	0.92
COc1ccc(C(=O)NC(Nc2ccc(C)cc2)C(Cl)(Cl)Cl)cc1 (configuration not stated)	12	50	-1.9	100	-1	i	0.89
COc1ccc(-c2nc3ccc(C(=O)NCC(OC)OC)cc3nc2-c2ccc(OC)cc2)cc1	0	75	nt	96	0	i	0.88
COc1ccc(NC(=O)CSc2nccn2-c2ccccc2)c(OC)c1	16	96	-0.3	102	-15	i	0.98
COc1cccc(-c2cc(C(=O)Nc3cnn(Cc4ccccc4C)c3)no2)c1	-6	102	-1.2	104	-5	nt	nt
O=C(c1cccc(F)c1)N1CCc2ccccc21	-33	98	-1.3	100	-1	i	0.89
CN(CC(=O)Nc1ccccc1Cl)C(=O)c1cc(=O)[nH]c2ccccc12	nt	nt	nt	97	nt	i	0.91
CN(C)CCCN(C(=O)c1cccc(N2C(=O)CCC2=O)c1)c1nc2cc3c(cc2s1)OCO3	nt	nt	nt	102	-6	i	0.97
O=C(COc1ccc(Cc2ccccc2)cc1)c1ccc(F)cc1	-27	94	0.0	102	-2	i	1
CCOC(=O)c1c(NC(=O)C2CCCO2)sc2c1CCC2 (configuration not stated)	14	81	0.2	103	-6	i	1.1
Cn1c(=O)c([N+](=O)[O-])c(Oc2ccccc2)c2ccccc21	nt	nt	nt	61	-3	i	0.92
O=C(O)C1(c2cccc(Cl)c2)CCC1	-31	134	-3.3	98	1	i	1
O=C(CC(c1ccccc1)(c1ccccc1)c1ccccc1)N[C@@H](Cc1ccc(O)cc1)C(=O)O	nt	nt	nt	94	2	i	0.75
O=C(NCCc1ccccc1)c1cc(=O)[nH]c2ccccc12	nt	nt	nt	97	-8	i	0.9
Clc1nc(-c2ccccc2)cc(-c2ccccc2)n1	nt	nt	-0.5	111	3	i	1.5
Cc1ccc(-c2cc(C(=O)Nc3cccnc3)[nH]n2)c(O)c1C	nt	nt	nt	96	nt	i	1
CC(OC(=O)CCc1nc2ccccc2c(=O)[nH]1)C(=O)NC1CCCC1 (configuration not stated)	nt	nt	-0.2	105	5	i	0.96
Cc1ccc(C2CC2c2n[nH]c(=S)n2-c2ccc(C)cc2)cc1 (configuration not stated)	26	86	-1.1	99	-1	i	0.96
C=CCC1C=C(C)CC(CC=C)N1 (configuration not stated)	-21	101	nt	101	-7	i	1
COC(=O)c1ccc(S(=O)(=O)N2CCN(C(c3ccccc3)c3ccccc3)CC2)n1C	nt	nt	nt	93	nt	i	0.9
Cc1ccccc1NC(=O)COC(=O)Cc1cccc(C(F)(F)F)c1	nt	nt	0.0	57	10	i	1
O=S(=O)(NNc1nccc(C(F)(F)F)n1)c1cccc(Cl)c1Cl	nt	nt	nt	133	nt	i	0.87
CCOCCc1nnc(NC(=O)C(CC)c2ccccc2)s1 (configuration not stated)	-12	95	-1.0	100	3	i	0.86
Cc1ccccc1NC(=O)/C=C1\SC(=O)NC1=O	-57	74	nt	102	-1	i	0.98
CCCCNC(=O)C1CCN(c2nc(C)cc(C)n2)CC1	nt	nt	nt	97	-2	i	1.1
CCCn1c2ccccc2c2cc(C(=O)O)ccc21	nt	nt	-3.6	146	-1	nt	nt
O=C(NC(=S)Nc1ccc(N2CCOCC2)cc1)c1ccco1	-48	97	-0.6	88	-2	i	0.89
O=C(NCC1CCCO1)c1ccc2c(=O)n(Cc3ccc(Cl)cc3)c(=S)[nH]c2c1 (configuration not stated)	21	125	nt	76	-13	i	0.96
O=C(Nc1cccc(Br)c1)c1ccc(CSc2ccccc2)cc1	19	122	-1.1	100	15	nt	nt
Cc1onc(C(=O)NCc2cccs2)c1[N+](=O)[O-]	nt	nt	nt	99	13	i	1.2
COc1cccc(NC(=O)C(Sc2nnc(-c3ccncc3)n2-c2ccc(Cl)cc2)c2ccccc2)c1 (configuration not stated)	-13	77	-1.3	110	-13	i	0.88
CC1CC(C)CN(S(=O)(=O)c2ccc3c(c2)oc(=O)n3CC(=O)N2CCOCC2)C1 (configuration not stated)	nt	nt	-2.0	98	3	i	0.93
CCc1cc[n+](-c2nc([O-])sc2C=O)cc1	-12	170	0.4	95	-3	i	1.2
Cc1noc(NS(=O)(=O)c2ccc(NC(=O)CCC3CCCCC3)cc2)c1C	-15	106	0.0	104	0	i	0.89
CC(CNS(=O)(=O)c1ccccc1)(c1ccccc1)N1CCOCC1 (configuration not stated)	nt	nt	-0.1	104	11	i	1.1
Cc1cc(N2CCOCC2)nc(-c2ccccc2O)n1	19	170	-1.3	103	-6	i	0.81
COc1ccccc1/C=C/C=NC1C(=O)N(c2ccccc2)[N+](C)=C1C (configuration not stated)	nt	nt	nt	104	nt	i	0.82
CC(C)Oc1ccc(/C(O)=C2/C(=O)C(=O)N(CCN(C)C)C2c2ccco2)cc1 (configuration not stated)	-15	40	-1.4	102	-10	i	1.2
Cn1c(N)c(S(=O)(=O)N2CCN(C(=O)c3ccco3)CC2)c(=O)n(C)c1=O	33	101	nt	107	-5	i	1
O=C(O)CC(NC(=O)c1sc2ccccc2c1Cl)c1ccc(OC2CCCC2)cc1 (configuration not stated)	64	34	nt	125	5	i	0.88
CCN1CCN(CCCNc2ncnc3nc[nH]c23)CC1	nt	nt	-0.7	101	5	i	0.84
CCN(CC)c1ccc(NC(=O)c2cc(Cl)ccc2OC)cc1	-12	85	-0.9	106	-3	i	0.87
CSc1sc(C)cc1C=O	nt	nt	nt	104	-2	i	1.1
Cc1cccc(NC(=S)Nc2ccc(Br)cc2)c1	-37	109	-0.9	96	9	i	0.86
COc1cc(CNCc2cccs2)cc(Br)c1OC	nt	nt	-2.4	106	-7	i	0.9
CC1CCCC(C)N1NC(=O)c1ccc(Cl)c(S(N)(=O)=O)c1 (configuration not stated)	7	110	-0.8	-258	-9	i	0.96
CC(C)N(C(=O)c1ccc2nc(-c3ccccc3)c(-c3ccccc3)nc2c1)C(C)C	13	90	-0.3	108	-11	i	0.95
C=CCN(CC=C)C(=O)c1cc(Cl)ccc1[N+](=O)[O-]	-13	138	0.4	102	-10	i	1
Cc1nnc(NC(=O)COc2ccc3c(C)cc(=O)oc3c2)s1	-24	87	-0.8	93	-3	nt	nt
(further entries)
SMILES	Insulin prom inh	Insulin prom inh cell count	GALR2 agonist	RGS16-Gao HTS	PKD1 kinase inh	HSV replic up	HSV replic up primary fold
c1ccc2[nH]c(NCc3ccc4c(c3)OCO4)nc2c1	nt	nt	nt	117	1	i	0.97
CCOC(=O)Cn1nc(-c2ccc(C)cc2)c2ccccc2c1=O	nt	nt	nt	102	-1	i	1
NC(=O)c1ccccc1OCC(=O)NC12CC3CC(CC(C3)C1)C2	-21	126	-1.3	100	4	i	0.9
CCOc1ccc(NC(=O)c2ccc(NC(=O)Cc3n[nH]c(=O)c4ccccc34)cc2)cc1	nt	nt	nt	99	nt	i	1.1
CC(=O)Nc1ccc(NC(=O)C2CC(=O)N(c3cccc(Cl)c3)C2)cc1 (configuration not stated)	nt	nt	nt	99	5	i	1.1
Cc1cc(NCCCN2CCOCC2)n2nc(C)c(-c3ccc(F)cc3)c2n1	nt	nt	-1.6	104	14	i	0.72
CC(C)OCCCNC(=O)C1CCC(CNS(=O)(=O)c2ccc(Cl)cc2)CC1 (configuration not stated)	-11	108	-2.1	102	-15	i	0.93
COc1ccc(C2=NN(c3nc4ccccc4s3)C(=O)C2)cc1	nt	nt	nt	107	-9	i	0.93
CC1CCCC(NC(=O)C2CCN(S(=O)(=O)N3CCOCC3)CC2)C1C (configuration not stated)	0	87	-1.4	100	-10	i	0.77
COc1ccc(C(=O)Nc2cccc([N+](=O)[O-])c2)cc1Br	-2	94	0.2	nt	0	i	0.94
COc1ccc(C(=O)NCC23C=CC(O2)C2C(=O)N(Cc4ccccc4)C(=O)C23)cc1 (configuration not stated)	nt	nt	-0.1	86	0	i	0.93
COc1ccc2c(CSc3nc4nc(C)cc(C)n4n3)cc(=O)oc2c1	-3	118	1.0	93	-5	i	0.98
O=C(NCCCN1CCOCC1)c1cc2c(s1)CSC2	31	154	-2.8	229	11	i	0.99
COc1ccc(/C=N/Nc2nc(Nc3ccccc3)nc(N3CCCCC3)n2)cc1OC	-2	42	0.8	95	-8	i	0.95
O=C(Cc1ccccc1)Nc1cccc([N+](=O)[O-])c1	-50	80	nt	100	0	i	1
CCOC(=O)NC1(C(F)(F)F)NC(=O)N(Cc2ccco2)C1=O (configuration not stated)	-8	62	-1.5	88	1	i	1
CCn1c(SCC(=O)C(C)(C)C)nnc1-c1cnccn1	-38	121	-0.7	74	7	i	0.96
CCOc1ccc(NC(=O)CCSc2ccc3ccccc3n2)cc1	-13	99	0.3	120	-12	i	0.95
CCN(CC)S(=O)(=O)c1cccc(NC(=O)COC(=O)c2cccs2)c1	nt	nt	nt	102	4	i	0.99
COc1ccc(CNC(=O)CN(c2ccc(OC)cc2)S(=O)(=O)c2c(C)nn(C)c2C)cc1	-39	78	-0.1	65	-11	i	1.1
c1ccc2c(c1)NC1(CCCC1)n1c-2nc2ccccc21	nt	nt	-2.2	77	-4	i	0.98
CCCc1nc2c(c(=O)c3ccccc3n2C)c(=O)n1C1CCCCCC1	nt	nt	2.6	109	-9	i	0.74
Cc1nc(NC2=NCN(CCCN3CCOCC3)CN2)nc2c(C)cccc12	-14	43	-0.1	287	-3	nt	nt
Cc1ccc(OCc2nc(C#N)c(NCCCn3ccnc3)o2)cc1	nt	nt	0.5	95	2	i	1
COc1ccc(SCCC(=O)NCc2ccncc2)cc1	nt	nt	nt	105	nt	i	0.9
CC(=O)COc1cc(C)cc2oc(=O)c(C)c(C)c12	26	116	0.8	104	-1	i	0.95
c1ccc(-n2nnc3cnccc32)cc1	-33	107	-0.8	75	0	i	0.9
COc1ccccc1N(CC(=O)NC(C)(C)C)C(=O)C1CSC(=O)C1 (configuration not stated)	20	105	-2.1	105	-3	i	1.1
COc1cccc(C(=O)NCC2(c3ccccc3)CCCC2)c1	nt	nt	nt	98	-6	i	1.2
CCOc1ccc(C(C)=O)cc1COC(=O)c1cnc(Cl)c(Cl)c1	83*	144*	nt	158	-6	i	0.7
COc1ccc(NS(=O)(=O)c2cccc3nonc23)c(OC)c1	0	82	-2.1	104	-7	i	0.91
CC(NC(=O)OCc1ccccc1)C(=O)N1CC(O)CC1C(=O)O (configuration not stated)	16	92	-4.0	107	-17	i	0.87
Cc1ccc2nc(N(CCCN(C)C)C(=O)c3ccc(Br)s3)sc2c1	-33	43	nt	101	3	i	0.92
COCc1cc(C)n(CC(=O)NCc2ccccc2)c(=O)c1C#N	50	92	nt	110	4	i	0.94
O=S(=O)([N-]c1nc2ccccc2nc1-[n+]1ccccc1)c1ccc(Cl)cc1	0	73	-1.4	88	-9	i	1
N/C(=N\OC(=O)CCCOc1ccccc1)c1ccc([N+](=O)[O-])cc1	-21	123	nt	97	2	i	0.98
CC(C)Oc1ccc(CNC(=O)CC(c2ccccc2)c2cc(Cl)ccc2O)cc1 (configuration not stated)	nt	nt	-2.3	100	-2	i	1.1
Cc1ccc2c(c1)N(S(=O)(=O)c1ccc(F)cc1)C(C(C)(C)C)CO2 (configuration not stated)	nt	nt	-1.9	98	-14	i	1
O=C(CCN1C(=O)c2ccccc2C1=O)Nc1ccc2c(c1)OCCO2	9	118	-0.4	99	-1	i	0.91

Bioassay records deposited in PubChem by several laboratories.

An unsorted share of the library; about 1.3% have a hit in one of these screens.
